# KCNQ2 block = KCNQ2 potassium channel inhibitors, primary screen, cell-based, CHO-K1, FluxOR thallium flux, B-score (AID 2156) | B-score at 10 µM | actives 1.1% (n = 310,000) | 20 min; hits give low values; only compounds with negative scores are shown here; some inactives read as strong as hits | O88943;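 active = fluorescence ratio B-score at most minus 3 library SDs, with starting brightness B-score within 2 library SDs, cut at about -5.5 in these data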
# Target sequence (O88943 whole entry, looked up): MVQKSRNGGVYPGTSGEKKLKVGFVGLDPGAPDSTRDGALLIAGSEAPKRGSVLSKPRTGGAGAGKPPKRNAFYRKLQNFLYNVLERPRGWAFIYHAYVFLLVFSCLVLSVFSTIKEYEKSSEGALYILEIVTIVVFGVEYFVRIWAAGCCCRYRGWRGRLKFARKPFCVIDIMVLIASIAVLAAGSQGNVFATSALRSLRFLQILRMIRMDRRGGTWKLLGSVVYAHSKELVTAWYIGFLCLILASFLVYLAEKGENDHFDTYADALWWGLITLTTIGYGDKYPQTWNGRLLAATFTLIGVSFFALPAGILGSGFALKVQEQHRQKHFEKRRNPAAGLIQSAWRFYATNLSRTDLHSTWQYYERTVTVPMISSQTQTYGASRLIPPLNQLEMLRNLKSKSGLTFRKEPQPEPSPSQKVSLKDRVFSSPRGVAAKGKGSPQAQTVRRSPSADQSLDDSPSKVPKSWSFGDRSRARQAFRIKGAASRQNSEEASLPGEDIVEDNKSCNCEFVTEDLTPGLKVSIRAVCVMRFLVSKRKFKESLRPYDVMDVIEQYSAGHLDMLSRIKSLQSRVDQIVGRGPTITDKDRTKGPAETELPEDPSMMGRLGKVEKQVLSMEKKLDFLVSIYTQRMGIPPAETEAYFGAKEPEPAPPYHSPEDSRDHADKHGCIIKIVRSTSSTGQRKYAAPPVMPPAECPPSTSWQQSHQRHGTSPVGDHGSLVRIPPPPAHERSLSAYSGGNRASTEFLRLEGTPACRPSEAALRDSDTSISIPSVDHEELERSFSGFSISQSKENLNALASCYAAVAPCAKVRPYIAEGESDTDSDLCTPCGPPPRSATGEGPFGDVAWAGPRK
# KCNQ2 block baseline = recorded beside KCNQ2 block, whose call it bears; B-score; measured here: initial fluorescence intensity artifact check;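 brightness before thallium and not channel activity; 0 = typical well and far values either way flag optical interference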
# * marks the source's active call; other numbers are inactive results; i = inactive. Some of the compounds tested; rates above refer to the full screens.
SMILES,KCNQ2 block,KCNQ2 block baseline
Cc1ccc(OCC(=O)Nc2cc(C(C)(C)C)on2)cc1C,i,4
COc1ccccc1C(=O)Nc1nnc(-c2ccc(F)cc2)s1,i,0.02
CCOc1ccccc1-n1c(SCC(=O)N2CCOCC2)nnc1-c1ccccn1,i,0.19
COc1cc([N+](=O)[O-])ccc1N1C(=O)CC(Sc2nccc(C)n2)C1=O (stereo unspecified),i,1.1
CC(=O)c1ccc(S(=O)(=O)N2CCN(C(=O)c3ccccc3Cc3ccccc3)CC2)cc1,i,0.94
CC(C)N1C(=O)CCC1C(=O)NCc1ccco1 (stereo unspecified),i,-1.5
CN(Cc1ccc(C#CCCO)cc1)CC1CCCN(CCc2ccc(Cl)cc2)C1 (stereo unspecified),i,1.1
COC(=O)c1cc2oc3ccccc3c2n1Cc1ccccn1,i,-2.4
Cc1ccccc1CC1CCN(CCCNC(=O)Nc2ccccc2)CC1,i,-0.05
COCCOC(=O)C1=C(C)NC(C)=C(C(=O)OC(C)C)C1c1cccc([N+](=O)[O-])c1 (stereo unspecified),i,0.02
CSc1ncccc1C(=O)Nc1ccc2nc(C)sc2c1,i,-1.4
N#Cc1nc(-c2ccc(F)cc2)oc1N1CCC(C(N)=O)CC1,i,1.7
Cc1cccc(NC(=S)NC(=O)CCc2ccccc2)c1C,i,-1.1
CCn1c(SCC(=O)N(C)c2ccccc2)nc2c([nH]c3ccccc32)c1=O,i,-1.9
CC(=O)Nc1nnc(SCC(=O)NCCOc2ccccc2)s1,i,2.4
C[C@H](NC(=O)[C@@H]1Cc2ccccc2CN1)C(=O)NC1CCCC1,i,-0.93
COC(=O)c1ccc(/C=N/NC(=S)NCCN2CCOCC2)cc1,i,0.58
Cc1cc(/C=N/n2c(COc3ccccc3)nc3ccccc3c2=O)c(O)c([N+](=O)[O-])c1,i,0.03
COc1ccc(CN2CCN(Cc3c[nH]c4ccccc34)CC2CCO)c(F)c1 (stereo unspecified),i,-1.9
COc1cccc(CN=C2Nc3ccccc3CS2)c1,i,-0.45
CC1C=CCC2C(=O)N(c3cccc(C(=O)Nc4ccc(Br)cc4)c3)C(=O)C12 (stereo unspecified),i,-0.34
Clc1ccc(OCCn2cnc3ccccc32)cc1,i,1.1
O=C(O)c1ccc(NS(=O)(=O)c2ccc(N3CCCC3)c([N+](=O)[O-])c2)cc1,i,-1.7
O=C1CCCCN1CCCC(=O)N1CCCC(Nc2ccc(F)c(F)c2)C1 (stereo unspecified),i,-2
O=C(O)c1ccc(C=C(c2nc3ccccc3s2)c2nc3ccccc3s2)cc1,i,0.59
CCOC(=O)c1cc(S(=O)(=O)Nc2ccc(OC)cc2OC)cn1C,i,-0.04
CN(C)S(=O)(=O)c1cc(C(=O)OCCn2cnc3c2c(=O)n(C)c(=O)n3C)ccc1Cl,i,1.9
S=C(NNC(=S)NC1CC2CCC1C2)NC1CC2C=CC1C2 (stereo unspecified),i,0.83
Cc1ccc([N+](=O)[O-])cc1NC(=O)Cc1ccc(F)cc1,i,0.56
CCCCNC(=S)NNC(=O)CCn1cc(C)cn1,i,-0.63
CCn1nc(C)cc1C(=O)N1CCCC(C(=O)c2ccc(Oc3ccccc3)cc2)C1 (stereo unspecified),i,0.44
Cc1nn(Cc2c(F)c(F)c(F)c(F)c2F)c(C)c1NC(=O)c1ccc(COc2ccccc2Cl)o1,i,0.92
CCc1ccc(-c2cc(C)no2)cc1S(=O)(=O)N1CCN(c2cccc(C)c2C)CC1,i,-1.6
O=C(c1cccnc1)N(Cc1ccccc1)c1ccccc1,i,-0.31
COc1ccc(NC(=O)C2CCN(c3ncnc4c3nc3n4CCCCC3)CC2)c(OC)c1,i,-0.85
COc1cccc(-n2nnc3c(=O)n(Cc4ccc(Br)cc4)cnc32)c1,i,0.01
O=C(c1ccc2c(c1)OCO2)C1CCCN(C(=O)NCc2ccccc2)C1 (stereo unspecified),i,3.5
COCCSc1ccccc1C(=O)Nc1ccc(Br)cc1,i,-0.68
COc1ccc(S(=O)(=O)NC2CCSc3ccccc32)cc1NC(C)=O (stereo unspecified),i,-0.98
COc1ccc(CC(=O)NCc2n[nH]c(=S)n2-c2cccc(C)c2)cc1,i,1.6
Cc1ccc(SCC(=O)NCc2cccnc2)cc1,i,-0.36
CCOC(=O)c1c(C)[nH]c(C(=O)COC(=O)COc2ccc(OC)cc2)c1C,i,-0.1
COc1ccc(S(=O)(=O)N2CCC(C(=O)NCCc3ccccc3)CC2)cc1,i,0.45
Cc1ccc(NC(=O)C(C)Sc2nnc(C)n2CC2CCCO2)cc1 (stereo unspecified),i,2.1
Cc1ccc(OCCCCCCN2CCNCC2)c(Br)c1,i,0.03
Oc1cc(-n2cccn2)c(O)cc1-n1cccn1,i,-1
Cc1n[nH]c(C)c1S(=O)(=O)Nc1ccc2c(c1)OCCO2,i,0.99
CN(CCCC1CCCC1)C(=O)CCc1nnc(-c2ccccc2)o1,i,-0.63
COc1ccc(OCC(=O)NC(=S)NNC(=O)COc2ccc(Br)cc2Cl)cc1,i,0.19
Cc1ccc(-n2nc(C)c3c(C)c(CCC(=O)NCCCOC(C)C)c(C)nc32)cc1,i,-0.51
CN1/C(=C\C(=O)COC(=O)c2ccc(O)c(O)c2)C(C)(C)c2ccccc21,-6.5*,-0.89*
Cc1ccc(S[C@@H](CCN2CC[C@H](NC(=O)OCc3ccccc3)CCC2=O)c2ccccc2)cc1,-6.9*,0.07*
Cc1ccc(OCC(=O)N2CCN(C(=O)c3ccco3)CC2)cc1,i,3.5
COc1ccc(CCN2CC(C(=O)N3CCN(C(C)=O)CC3)CCC2=O)cc1 (stereo unspecified),i,0.61
CCOC(=O)C1=C(CSc2n[nH]c(N)n2)NC(=O)NC1C (stereo unspecified),i,1.1
Cc1ccc(S(=O)(=O)NCC(=O)NCCc2c[nH]c3ccccc23)cc1C,i,0.88
O=C(CCC(=O)N(CC(=O)NC1CCCC1)C1CCCCC1)Nc1ccccn1,i,2.3
O=C(NCc1ccco1)c1ccccc1-c1nc(-c2ccc(F)cc2)no1,i,0.97
CC(C)(O)C#Cc1ccc(C(=O)N2CCN(C(=O)c3ccco3)CC2)cc1,i,-1.4
Cc1occc1-c1nnc(SCC(=O)NCCc2ccccc2)n1C(C)c1ccccc1 (stereo unspecified),i,-0.39

# (list continues)
SMILES,KCNQ2 block,KCNQ2 block baseline
COc1ccc(/C=N/NC(=O)CC(=O)NCc2cccnc2)c(OC)c1,i,1.1
Cc1cccn2c(/C=N/OCc3cccc(F)c3)c(-c3ccc(Cl)cc3)nc12,i,2.3
C#CCOCCOCCOCCNc1nc(N2CCN(C(=O)[C@H]([C@@H](C)CC)n3cc([C@@H](N)CO)nn3)CC2)nc(N2CCN(C(=O)[C@H](CCCCN)n3cc([C@@H](N)CC(C)C)nn3)CC2)n1,i,0.84
FC(F)(F)c1cccc(Cn2nnnc2-c2cccc(C(F)(F)F)c2)c1,i,-0.43
Cc1cccc(C)c1NC(=S)N/N=C/c1ccc(C(=O)O)cc1,i,0.03
CSc1ccc(S(=O)(=O)N2CCC(C(=O)NCCN3CCOCC3)CC2)cc1,i,0.3
CO/N=C(/CS(=O)(=O)c1ccc(C)cc1)c1ccc(OC)cc1,i,-1.2
Cc1nn(-c2ccccc2)c(Cl)c1C(=O)N1CCN(C)CC1,i,1.5
CN1CCN(S(=O)(=O)c2ccc3c(c2)NC(=O)C2CCCN32)CC1 (stereo unspecified),i,1.4
CC(CO)NCC12CC3CC(CC(C3)C1)C2 (stereo unspecified),i,0.58
CCS(=O)(=O)N1CCCC(C(=O)N2CCc3ccccc3C2)C1 (stereo unspecified),i,-0.66
Cn1cc(CN2CCC(O)CC2)c(-c2ccc(Oc3ccccc3)cc2)n1,i,-0.09
COc1cccc(CN(C(=O)c2ccccc2)C2CCS(=O)(=O)C2)c1 (stereo unspecified),i,0.06
Cc1cc(C)n(C(=O)/C=C/c2cccs2)n1,i,1.8
O=C(NCC(c1cccnc1)N1CCOCC1)c1ccc2c(c1)OCO2 (stereo unspecified),i,1.9
CN(C(=O)Cn1cnc2ccccc2c1=O)C1CCS(=O)(=O)C1 (stereo unspecified),i,1.4
C/C(=N\NC(=O)Cc1ccc(Cl)cc1)c1ccc(F)cc1,i,-0.72
CC(C)CC1NC(=S)N(C2CCCCC2)C1=O (stereo unspecified),i,-0.04
CC(/C=C/c1ccccc1F)=N\NC(=O)c1cccc(F)c1,i,-0.78
Nc1ccc(C(=O)N2N=C(c3ccc(F)cc3)CC2(O)C(F)(F)F)cc1 (stereo unspecified),i,0.16
Cc1ccc(OCc2ccc(C(=O)Nc3nccs3)o2)cc1C,i,-0.15
O=C(NNC(=O)c1cc(C(F)(F)F)cc(C(F)(F)F)c1)c1ccc(Cl)cc1,i,-0.99
C=CCn1c(SCC(=O)Nc2nc3ccccc3s2)nc(O)c(CC)c1=O,i,-1.9
O=c1oc(/C=C/c2ccco2)nc2sc3c(c12)CCC3,i,-1.4

# One compound at a time, from the list above. Order of screens: KCNQ2 block, KCNQ2 block baseline
# S=C(NNC(=S)NC1CC2CCC1C2)NC1CC2C=CC1C2 (stereo unspecified) is entered as i, 0.83
# Cc1ccc([N+](=O)[O-])cc1NC(=O)Cc1ccc(F)cc1 is entered as i, 0.56
# FC(F)(F)c1cccc(Cn2nnnc2-c2cccc(C(F)(F)F)c2)c1 is entered as i, -0.43
# Cc1nn(Cc2c(F)c(F)c(F)c(F)c2F)c(C)c1NC(=O)c1ccc(COc2ccccc2Cl)o1 is entered as i, 0.92
# Cc1cccn2c(/C=N/OCc3cccc(F)c3)c(-c3ccc(Cl)cc3)nc12 is entered as i, 2.3

# Structures from the list above containing a CF3 group:
SMILES,KCNQ2 block,KCNQ2 block baseline
FC(F)(F)c1cccc(Cn2nnnc2-c2cccc(C(F)(F)F)c2)c1,i,-0.43
Nc1ccc(C(=O)N2N=C(c3ccc(F)cc3)CC2(O)C(F)(F)F)cc1 (stereo unspecified),i,0.16
O=C(NNC(=O)c1cc(C(F)(F)F)cc(C(F)(F)F)c1)c1ccc(Cl)cc1,i,-0.99

# The list continues:
SMILES,KCNQ2 block,KCNQ2 block baseline
CC(C)CNS(=O)(=O)c1ccc(CCC(=O)NC2CCCC2)cc1,i,-0.98
O=C(C1=C[C@@H](c2ccc3c(c2)OCO3)C[C@@H](OCCCCO)O1)N1CCN(Cc2ccc3c(c2)OCO3)CC1,i,-1.5
CC(C)Oc1ccc(C(=O)Nc2cccc3cccnc23)cc1,i,-3.4
NS(=O)(=O)c1ccc(CCNC(=O)CNC(=O)c2ccccc2F)cc1,i,0.03
Cc1c(NC(=O)CN2C(=O)NC3(CCCCC3)C2=O)c(=O)n(-c2ccccc2)n1C,i,0.84
CCNC(=S)NNC(=O)c1ccc(OC)cc1,i,-0.37
CC1CC(C)CN(S(=O)(=O)N2CCCC(C(=O)NCCCN3CCOCC3)C2)C1 (stereo unspecified),i,-4.3
Cc1ccc(-c2cc(N)nc(-c3ccccc3)c2)cc1,i,-0.01
COc1ccc(CCNS(=O)(=O)c2ccc(-c3ccc(=O)[nH]n3)o2)cc1OC,i,2.6
CCOc1ccc(N2C(=O)CC(SCc3nc4ccccc4[nH]3)C2=O)cc1 (stereo unspecified),i,-0.85
O=C(NCCCn1ccnc1)C1c2ccccc2Oc2ccccc21,i,1.6
COC(=O)c1sc(S(=O)(=O)NCc2ccccc2)c(C(=O)OC)c1C,i,0.25
O=C(c1cc2cc(Cl)ccc2oc1=O)N1CCOCC1,i,0.18
CCOc1ccc2nc(NC(=O)C3CCN(c4cnccn4)CC3)sc2c1,i,-0.36
Cc1ccc(C(=O)NCCc2nnc3ccc(SCC(=O)N4CCCC4)nn23)cc1,i,0.21
CCN(CC)S(=O)(=O)c1ccc(C(=O)/C=C/c2ccc(-c3ccc([N+](=O)[O-])cc3)o2)cc1,i,2
CC1Cc2ccccc2N1CC(=O)Nc1ccc2c(c1)OC(F)(F)O2 (stereo unspecified),i,0.05
N/C(=N\N=C\c1ccco1)SC1CC(=O)N(c2ccccc2)C1=O (stereo unspecified),i,-1.7
COc1ccc(C(CCNCc2ccc(OC(C)C)cc2)C(C)C)cc1 (stereo unspecified),i,0.25
O=C(CSc1nnc(-c2ccncc2)n1Cc1ccco1)Nc1nc(-c2ccccc2)cs1,i,2
Cc1ccc(C)c(C(=O)Nc2ccncc2)c1,i,-0.12
CCOc1ccc(-n2cc(-c3ccccc3)c3c(SC(C)C(=O)OC)ncnc32)cc1 (stereo unspecified),i,-1.1
COc1cccc(/C=C2\SC(=O)N(CCC(=O)N3CCC(C(=O)O)CC3)C2=O)c1,i,-0.51
CCOC(=O)c1c(C2COc3ccccc3O2)csc1NC(=O)c1ccco1 (stereo unspecified),i,0.12

# Three structures out of the list, sorted by length of the SMILES, descending.
SMILES,KCNQ2 block,KCNQ2 block baseline
Cn1cc(CN2CCC(O)CC2)c(-c2ccc(Oc3ccccc3)cc2)n1,i,-0.09
N/C(=N\N=C\c1ccco1)SC1CC(=O)N(c2ccccc2)C1=O (stereo unspecified),i,-1.7
CC(C)CC1NC(=S)N(C2CCCCC2)C1=O (stereo unspecified),i,-0.04

# (cont.)
SMILES,KCNQ2 block,KCNQ2 block baseline
Cc1ccc(C)c(N(C(=O)c2snc(C(N)=O)c2N)C(C(=O)NCC2CCCO2)c2ccc(C)o2)c1 (stereo unspecified),i,1.1
CC(C)COc1ccc(C(=O)N(Cc2ccco2)C2CCS(=O)(=O)C2)cc1 (stereo unspecified),i,-1.9
O=C1c2ccccc2C(=O)C1c1ccccc1,i,-0.87
CCCCN(C)CC(O)Cn1cc(/C=C/C(=O)c2cccs2)c2ccccc21 (stereo unspecified),i,11
CCN1CCN(CCCOc2ccc(Cl)cc2Br)CC1,i,2.5
O=C(OCC(=O)N1CCCCC1)c1cc(NS(=O)(=O)c2ccc(Cl)c([N+](=O)[O-])c2)ccc1O,i,0.86
Cc1ccc(C(=O)O/N=C(\N)c2cccc([N+](=O)[O-])c2)cc1,i,0.12

# From PubChem
